miR-21 FLuc: qHTS Assay for Modulators of miRNAs and/orActivators of miR-21. HeLa miR-21 FLuc reporter, luciferase, 48 h. Potency, µM (series often up to 38.3 µM), without a hit: at the highest dose reporter change, positive = more light. 340,000 tested, under 10 active; active = well fitted rising curve with a large enough effect; inconclusive = small, poorly fitted or top-dose-only effect; inactive = no such curve, though single readings can be large or run the other way;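 note: % of control where 0% means no effect; miR-21 action dims this reporter so a rising signal means less miR-21 action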
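Luminescence from a firefly luciferase reporter carrying a miR-21 binding site downstream, stably expressed under a CMV promoter in HeLa cells that make miR-21 endogenously, reports miRNA modulation after 48 h compound exposure up to approximately 40uM final.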
Rango dissoc inh: qHTS Assay for Inhibitors of RanGTP induced Rango (Ran-regulated importin-beta cargo) - Importin beta complex dissociation; Biochemical FRET Rango-importin beta, RanGTP-induced dissociation; Snurportin-1 (Homo sapiens) + GTP-binding nuclear protein Ran (Homo sapiens) + Importin …; actives 0.071% (n = 340,000); Potency, µM (series often up to 46.1 µM), for the others: at the top dose activity change, negative = inhibition; AID 540253, 2011; active means falling FRET ratio curve, often poorly fitted, with flat reads before Ran was added; inconclusive means other falling curves, or compound fluorescence or quenching; inactive means flat or rising ratio curve;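 note: potency is the fitted concentration of half-maximal effect; % of control where 0% means no effect; nearly all actives have a fitted effect of over 45% in size; -100% = wells without RanGTP and RCC1; the record marks most hits as doubtful in a second field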
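Quantitative HTS using a FRET biosensor: 0.1 uM Rango, 0.25 uM importin beta, 0.6 uM Ran, 2 mM GTP, 0.2 uM RCC1 final, PBS with DTT, Tween-20 and BSA. Post-read taken 45 min after Ran addition.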
Rango-impB inh: qHTS Assay for Inhibitors of Rango (Ran-regulated importin-beta cargo) - Importin beta complex formation | Importin subunit beta-1 (Homo sapiens), Q14974 | Rango CFP/YFP FRET sensor + importin beta, 45 min | Potency, µM (series often up to 92.2 µM), inactives show top-dose inhibition of complex formation | actives 0.031% (n = 340,000) | AID 540263, 2011; active = rising FRET ratio curve, often small or poorly fitted; inconclusive = mostly compound fluorescence or quenching in the first reads; inactive = flat curves in all reads;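 note: potency is the fitted concentration of half-maximal effect; 0% = DMSO wells and 100% = buffer wells lacking importin beta; nearly all actives have a fitted effect of over 15% in size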
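FRET biosensor (snurportin 1 IBB flanked by EYFP and cerulean), 50 nM, with compound 5 min, then 0.125 microM importin beta in PBS, 1 mM DTT, 0.02% Tween-20, 0.1% BSA. CFP/YFP ratio read after 45 min at room temperature; pre-read flags interference.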
GLA inh pH 4.5: qHTS Assay for Inhibitors of Human alpha-Galactosidase at pH 4.5 | activity change, negative = inhibition, % at 105 µM | Alpha-galactosidase A (Homo sapiens), P06280 | 230,000 tested, under 10 active | purified enzyme, 4-MU-alpha-Gal fluorescence, pH 4.5; inconclusive = small, poorly fitted or top-dose-only inhibition, or a rising curve; inactive = flat fitted curve, though single readings scatter; no compound was filed as active;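 note: 0% = full activity with enzyme and -100% = basal without enzyme; dose as in the result columns while the protocol names 77 µM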
Target sequence (P06280 whole entry, looked up): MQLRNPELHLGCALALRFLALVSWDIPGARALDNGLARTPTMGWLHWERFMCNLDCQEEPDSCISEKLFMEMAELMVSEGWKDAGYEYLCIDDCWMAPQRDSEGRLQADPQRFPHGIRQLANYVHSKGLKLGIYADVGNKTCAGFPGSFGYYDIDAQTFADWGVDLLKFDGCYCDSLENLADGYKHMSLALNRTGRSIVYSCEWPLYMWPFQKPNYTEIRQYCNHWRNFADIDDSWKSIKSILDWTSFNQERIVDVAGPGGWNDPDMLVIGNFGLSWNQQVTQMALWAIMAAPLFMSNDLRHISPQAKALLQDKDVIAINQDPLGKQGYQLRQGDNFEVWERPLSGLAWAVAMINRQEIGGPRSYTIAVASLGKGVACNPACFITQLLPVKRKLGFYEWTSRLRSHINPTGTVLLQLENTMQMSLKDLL
* = called active by the depositor; ? = inconclusive; . = no result given. An excerpt, so the mix of outcomes need not match the whole.

Every second line gives: miR-21 FLuc | Rango dissoc inh | Rango-impB inh | GLA inh pH 4.5
COc1cccc(CN(CC2CCCO2)S(=O)(=O)c2ccc(-n3cnnn3)c(OC)c2)c1 (centres undefined)
 : -3% | -10% | -0.8% | -7
O=C(Nc1ccccc1C(=O)O)/C(=C/c1ccc([N+](=O)[O-])cc1)NC(=O)c1ccc(Br)o1
 : 0% | ? | -5.0% | -5
CN(C)/C=C(\C#N)C(=O)Nc1ccc(F)c(Cl)c1
 : -38% | -2% | -0.3% | 0
O=C(COC(=O)C12CC3CC(CC(C3)C1)C2)NC12CC3CC(CC(C3)C1)C2
 : 2% | -7% | -1.0% | 3
O=C(CCCC1=NS(=O)(=O)c2ccccc2N1)NCCc1ccc(Cl)cc1
 : 6% | 1% | -3.1% | .
COc1ccc(Cl)cc1NS(=O)(=O)c1cccc(C(=O)NCC(c2ccco2)N2CCCC2)c1 (centres undefined)
 : . | -1% | -0.2% | .
COc1ccc(C)cc1Nc1n[n+](C)c(-c2ccc(O)cc2O)s1
 : 1% | -5% | -6.2% | .
Cc1ccnc(SCCn2c(N3CCN(C)CC3)nc3c2c(=O)[nH]c(=O)n3C)n1
 : -3% | . | . | 9
CCc1ccc(NC(=O)CSc2nnc(CNC(=O)c3ccc(OC)cc3)o2)cc1
 : -1% | 8% | 3.3% | .
O=C1C2CCCN2C(=O)N1CCCCN1CCN(c2cccc(C(F)(F)F)c2)CC1 (centres undefined)
 : 3% | -1% | 1.3% | .
O=C(c1ccc(F)cc1)C1CCN(C(=O)NC2CCCCC2)CC1
 : -8% | 2% | 0.1% | 2
CCOCCCNC(=S)N(Cc1ccco1)Cc1cc2cc3c(cc2[nH]c1=O)OCCO3
 : -4% | -2% | -0.4% | 1
Cc1c(OCC(=O)NCCCn2ccnc2)ccc2c3c(c(=O)oc12)CCC3
 : -11% | -5% | 0.4% | .
COc1ccc(N(C)S(=O)(=O)c2cccc3cccnc23)c(OC)c1
 : 21% | 1% | -3.2% | -5
COc1ccc(N=CC2=C(O)CC(C)(C)CC2=O)cc1
 : -26% | 7% | 0.1% | 4
Cn1c(Cc2cccs2)nnc1SC/C=C/c1ccccc1
 : -7% | 7% | 4.8% | 0
COc1ccc(C(=O)Nc2ccc(S(=O)(=O)N3CCCCC3)cc2)cc1
 : 14% | -2% | -1.5% | -13
COc1ccc(/C=N/N(c2ccccc2)c2ccccc2)cc1O
 : -12% | 23% | 5.5% | .
COC(=O)c1cc(OC)c(OC)cc1NC(=O)Cc1cccs1
 : 1% | -11% | 3.5% | -2
CCOC(=O)c1nnn(-c2nonc2N)c1-c1ccc(OC)cc1
 : -2% | 1% | 1.8% | 9

The closing 3 compounds of the part before come first, to join the parts:
Every second line gives: miR-21 FLuc | Rango dissoc inh | Rango-impB inh | GLA inh pH 4.5
COc1ccc(/C=N/N(c2ccccc2)c2ccccc2)cc1O
 : -12% | 23% | 5.5% | .
COC(=O)c1cc(OC)c(OC)cc1NC(=O)Cc1cccs1
 : 1% | -11% | 3.5% | -2
CCOC(=O)c1nnn(-c2nonc2N)c1-c1ccc(OC)cc1
 : -2% | 1% | 1.8% | 9
CC1CCN(S(=O)(=O)c2cccc(-c3cn4cc(Cl)ccc4n3)c2)CC1
 : -17% | 3% | -1.0% | 6
COc1ccc(-n2nc(C(=O)NCC(=O)Nc3cc(OC)c(OC)c(OC)c3)c3ccccc3c2=O)cc1OC
 : 9% | -21% | ? | .
O=C(CC1SC(N2CCCC2)=NC1=O)Nc1ccc(C(=O)N2CCCC(C(F)(F)F)C2)cc1 (centres undefined)
 : . | 4% | -2.1% | .
CC(NC(=O)/C=C/c1ccccc1[N+](=O)[O-])C1CC2CCC1C2 (centres undefined)
 : 6% | 2% | -0.6% | .
COc1ccc(OCC(=O)Nc2c(C(=O)N(CCN(C)C)Cc3ccco3)oc3ccccc23)cc1
 : 1% | -8% | -0.1% | .
OCC1CCCCN1CC(O)COC(c1ccc(F)cc1)c1ccc(F)cc1 (centres undefined)
 : -8% | -19% | -2.0% | .
NC(=O)c1ccc(-n2nnnc2SCC(=O)Nc2ccccc2F)cc1
 : -9% | 13% | 1.2% | .
O=C(Nc1ccc(C(=O)N2CCCCC2)cc1)C1CCCCC1
 : -6% | -24% | -5.7% | 3
O=c1[nH]c(CNCc2cccnc2)nc2ccccc12
 : 6% | 8% | -6.4% | 5
COc1ccccc1N=Cc1c(O)c2ccccc2oc1=O
 : 0% | -6% | ? | 10
O=C(/C=N/O)NCCCN1CCOCC1
 : -4% | -4% | -0.4% | 7
Cc1cc(OCC(=O)NNC(=O)c2ccncc2)cc(C)c1Cl
 : -2% | -22% | -2.7% | .
Cc1ccc(-c2cc(C(=O)NCCCN3CCOCC3)c3ccccc3n2)cc1
 : . | 10% | -2.6% | .
O=C(/C=C/c1ccco1)N1CCc2ccccc21
 : -30% | -4% | -0.8% | -4
O=C1c2ccc(-c3ccc(F)cc3OCc3ccccc3)cc2S(=O)(=O)c2cccc(C(=O)N3CCCC3)c21
 : . | -11% | -1.0% | .
CN1C(=O)/C(=C/c2ccco2)SC1=Nc1cccc(C(=O)O)c1
 : 2% | -2% | ? | 3
COc1ccc(-n2c(-c3ccc(Br)cc3)c[n+]3c2CCC3)cc1
 : 29% | -6% | -0.6% | 1
CC1CN(Cc2ccccc2)C(=S)N(c2ccccc2)C1=O (centres undefined)
 : . | 2% | -0.3% | .
N#CC1=C(N)OC(c2ccccc2)=C(C#N)C1c1ccc2c(c1)OCO2 (centres undefined)
 : -5% | -14% | 1.9% | -6
CCC(C)(C(=O)NC1CCCC1)N(Cc1cccs1)C(C)=O (centres undefined)
 : -4% | 14% | -2.3% | -7
CC(C)C(NC(=O)Cc1ccccc1)C(=O)N1CCN(c2cccc(Cl)c2)CC1 (centres undefined)
 : . | 1% | -1.2% | .
Cc1ccc(N2CS(=O)(=O)/C(=C/N(C)C)C2=O)cc1
 : -11% | -6% | 1.5% | 1
O=S(=O)(c1ccc(Cl)nc1)N1CCCc2ccccc21
 : -8% | -4% | -1.5% | 10
Cn1c(=O)oc2cc(S(=O)(=O)NC3CCN(Cc4ccccc4)CC3)ccc21
 : -7% | 1% | ? | -9
COc1cc(/C=C2\SC(c3ccc(C)cc3)=NC2=O)cc(OC)c1OC
 : -3% | -20% | -0.9% | -9
CCN(C(=O)CN1C(=O)S/C(=C\c2ccc(Cl)cc2)C1=O)C1CCS(=O)(=O)C1 (centres undefined)
 : 1% | ? | 9.9% | .
O=C(CS(=O)(=O)c1cn(CC(=O)N2CCOCC2)c2ccccc12)Nc1ccccc1F
 : -4% | -4% | -1.7% | .
CCOc1cc(S(=O)(=O)n2nc(C)cc2C)ccc1F
 : -6% | -2% | 7.5% | -1
O=S(=O)(c1ccccc1)C(/C=N\O)/C=C/c1ccccc1 (centres undefined)
 : -14% | -7% | -2.0% | 1
S=c1[nH]nc(-c2ccncc2)n1/N=C/c1cn(-c2ccccc2)nc1-c1ccccc1
 : -18% | 7% | -2.5% | -1
O=C(N=C1SC2CS(=O)(=O)CC2N1c1ccc(F)cc1)C1CCCCC1 (centres undefined)
 : -6% | -8% | 2.0% | .
O=C1C(=O)N(CCCN2CCOCC2)C(c2ccc(Cl)cc2)/C1=C(\O)c1ccc2c(c1)OCCO2 (centres undefined)
 : -6% | -3% | -1.7% | .
CCC1(c2ccc(F)cc2)NC(=O)N(CC(=O)c2cc(C)n(C3CC3)c2C)C1=O (centres undefined)
 : . | -21% | 7.9% | .
CC(Sc1nnc2n1CCCCC2)C(=O)Nc1ccccc1[N+](=O)[O-] (centres undefined)
 : . | -25% | -0.1% | .
Cc1ccc(C(C)c2c(C)c([N+](=O)[O-])cc(C)c2[N+](=O)[O-])cn1 (centres undefined)
 : 10% | 1% | -1.0% | .
CC(=O)c1ccc(OC(C)C)c(CSc2nc(O)cc(=O)[nH]2)c1
 : -4% | 18% | -0.3% | 6
O=S(=O)(NCc1cccs1)c1ccc(Cl)s1
 : -1% | 6% | ? | .
COC(=O)C(C)Sc1nnc(SC(C)C(=O)OC)s1 (centres undefined)
 : -1% | 8% | 4.4% | -3
COc1ccc(NC(=O)c2c3c(nc4ccccc24)CCC3)cc1S(=O)(=O)N1CCOCC1
 : -1% | -9% | -0.3% | 10
CCOC(=O)c1cc2sccc2n1CC(=O)N1c2ccccc2CC1C (centres undefined)
 : -5% | -20% | ? | -5
Cc1ccccc1-c1ccc(Nc2ccc(N3CCOCC3)cc2)nn1
 : -19% | 5% | 4.0% | -1
CC(=O)N1CCC(C(=O)NCCOc2cccc(C)c2)CC1
 : -1% | 4% | -0.2% | .
O=C(CNc1cccc(S(=O)(=O)N2CCOCC2)c1)Nc1cccc(Br)c1
 : . | 0% | ? | .
Nc1cc(F)ccc1N1CCCCCC1
 : 18% | 7% | 2.5% | 0
Cc1ccc(NC(=O)CCn2nc([N+](=O)[O-])cc2C)nc1
 : -7% | -18% | 4.2% | -7
COC(=O)C(CCCN1C(=O)c2ccccc2C1=O)(NC(C)=O)c1nn[nH]n1 (centres undefined)
 : 4% | -5% | -2.2% | 3
COc1ccc(S(=O)(=O)N2CCCC2C(=O)NCc2ccccc2Cl)cc1 (centres undefined)
 : -1% | -6% | 1.4% | 0
O=C(O)c1cc(S(=O)(=O)O)ccc1O
 : -3% | -6% | -0.8% | -3
O=C(CN1C(=O)CNC1=O)Nc1ccc(Cl)cc1
 : 3% | -8% | -0.7% | 0
Cc1cc(C)nc(NS(=O)(=O)c2ccc(NC(=O)C(C)C)cc2)n1
 : -7% | -9% | -0.1% | .

Later entries
Every second line gives: miR-21 FLuc | Rango dissoc inh | Rango-impB inh | GLA inh pH 4.5
Cc1c(C=O)c2ccccc2n1CCOc1ccccc1F
 : 12% | -8% | -0.1% | .
Cc1cccc(OCCCCn2c(CO)nc3ccccc32)c1
 : 16% | -7% | 3.3% | .
CCOCCCNC(=O)C(NC(=O)c1ccc(NC(C)=O)cc1)c1ccc(Cl)cc1 (centres undefined)
 : -6% | 25% | 3.7% | -16
CCN1CCN(C(=O)COCc2cc(-c3ccc4c(c3)OCO4)on2)CC1
 : -15% | 8% | 4.7% | .
O=C(OCc1nnc(-c2ccc(Cl)cc2)o1)c1ccncc1
 : -16% | -12% | 0.1% | -1
Cc1ccc(S(=O)(=O)NCC(=O)NCC(=O)NCCc2ccccc2F)cc1C
 : . | -11% | 0.8% | .
COc1ccc(C2=NOC(C)(c3nnc(-c4ccc(Cl)cc4)o3)C2)cc1 (centres undefined)
 : . | 0% | ? | .
COc1cc(/C=C/C(=O)NC(=O)c2ccccc2O)ccc1O
 : -2% | ? | ? | .
COCc1cc(C)n(CC(=O)OC)c(=O)c1C#N
 : 2% | -4% | 1.5% | 5
Cc1noc(C)c1S(=O)(=O)Nc1ccc2c(c1)C(=O)N([C@H](C)CO)C[C@@H](C)[C@@H](CN(C)Cc1ccc3c(c1)OCO3)O2
 : . | 7% | -1.8% | .
COc1cc(OC)c(NC(=O)c2ccc(Br)o2)cc1Cl
 : -4% | 2% | -2.9% | 8
CCn1c(=O)n(CC(=O)Nc2ccc(F)cc2)c(=O)c2ccccc21
 : -2% | 0% | 0.5% | -8
CCOC(=O)c1ccc(Oc2c(C)oc3cc(OS(C)(=O)=O)ccc3c2=O)cc1
 : 4% | -2% | 0.2% | -2
O=C1c2ccccc2C(=O)N1CCCCON1C(=O)c2ccccc2C1=O
 : -3% | 35% | 2.4% | 2
CCOC(=O)N1CCc2c(sc3nc4n(c(=O)c23)N=C(c2ccc(OC)cc2)CS4)C1
 : -2% | -11% | 4.6% | -7
Cc1nc(NC(=S)NC(=O)c2cccs2)ccc1Br
 : -62% | 20% | 0.2% | 3
CCN1CC(CN(C)Cc2nc(-c3ccco3)oc2C)CC1=O (centres undefined)
 : 1% | 0% | 2.4% | 1
CCCN1CCC(Oc2cccc(C(=O)NCCc3ccccc3)c2)CC1
 : -19% | -8% | 0.4% | .

Screening results (PubChem BioAssay)
